Screens: PubChem, National Center for Advancing Translational Sciences (NCATS)
PINK1 modulator – modulators of PINK1 expression | PINK1 immunofluorescence, high-content cytometry, 24 h | Potency, µM (top dose mostly 76.6 µM), for the others: at the highest dose activation (PINK1 increase), usual class: activators | 410,000 tested, 0.2% active | AID 624263; active = well fitted activation curve with a large enough effect; inconclusive = small, poorly fitted or top-dose-only effect; inactive = flat fitted curve, though single readings scatter; cell line not stated here;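 further: potency means the concentration at half of the fitted maximal effect; % of control where 0% means no effect; nearly all actives have a fitted effect of over 65% in size; a mitochondrial uncoupler was the plate control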
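Decision-based qHTS: stable cells, 24 h exposure to five compound concentrations, CCCP as control. Fixed cells stained for PINK1 plus nuclear, mitochondrial and cell markers, cytometer read.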
ClpP mod – qHTS Assay for Activators of ClpP | 340,000 tested, 1.9% active | AID 651965, 2013 | Potency, µM (doses to about 57.5 µM), without a hit: top-dose activity change, negative = active | purified B. subtilis ClpP, FRET peptide cleavage, 20 min | ATP-dependent Clp protease proteolytic subunit (Bacillus subtilis (strain 168)), P80244; active = well fitted falling curve with a large enough effect; inconclusive = small, poorly fitted or top-dose-only effect; inactive = no such curve, though single readings can be large or run the other way; further: potency means the concentration at half of the fitted maximal effect; the source files actives as falling curves though it sought activators and does not explain the sign; nearly all actives have a fitted effect of over 65% in size; many hits overshoot -100%
Target sequence (P80244 whole entry, looked up): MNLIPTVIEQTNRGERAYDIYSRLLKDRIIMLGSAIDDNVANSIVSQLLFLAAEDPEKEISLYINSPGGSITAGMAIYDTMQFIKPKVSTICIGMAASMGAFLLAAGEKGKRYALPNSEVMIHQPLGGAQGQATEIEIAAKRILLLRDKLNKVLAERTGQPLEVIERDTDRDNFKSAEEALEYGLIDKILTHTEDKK
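FRET quenching reversal measured ClpP activation: 10 microg/mL B. subtilis ClpP at pH 8 with the FRET-FV decapeptide, read at 430 nm after 320 nm excitation. The 20-min minus 0-min signal was scaled between DMSO/no-enzyme wells and ADEP (5.8 microM final).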
Sfp PPTase inh – inhibitors of Bacillus subtilis Sfp phosphopantetheinyl transferase. Potency, µM, without a hit: max response, negative = inhibition, hits mostly inhibitors. Q9F4F7. 310,000 tested, 3.5% active. Biochemical Sfp PPTase activity, qHTS; active means well fitted inhibition curve with a large enough effect; inconclusive means small, poorly fitted or top-dose-only effect, or another doubt; inactive means no such curve, though single readings can be large or run the other way;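 further: the enzyme is Sfp with the accession as filed and its product quenches rhodamine fluorescence; potency means the concentration at half of the fitted maximal effect; 0% = enzyme reaction without inhibitor and -100% = no enzyme wells; top concentration of the series not given in the record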
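Fluorescence-quenching assay with 15 nM Sfp, 5 uM rhodamine-CoA and 12.5 uM BHQ-2-labelled ybbR peptide in pH 7.6 Hepes/MgCl2 buffer. Enzyme was pre-incubated with compound for 15 min at room temperature. Rate was taken from the 30-min fluorescence change (525/598 nm).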
gsp agonist – agonists of gsp mutant (McCune-Albright syndrome); gsp mutant cells, cAMP HTRF, 30 min; control for the full effect not named in the record; 340,000 tested, 0.13% active; Potency, µM (titrated, usually from 76.9 µM), for the others: top-dose activation (cAMP increase), actives largely listed as activators; AID 624287; active = well fitted activation curve with a large enough effect; inconclusive = small, poorly fitted or top-dose-only effect, or another doubt; inactive = no such curve, though single readings can be large or run the other way; cell line not stated here;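 further: phosphodiesterase inhibitor Ro 20-1724 added with compounds to block cAMP breakdown; potency means the concentration at half of the fitted maximal effect; nearly all actives have a fitted effect of over 60% in size; about a fifth of the inactives were tested at one dose only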
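Cells stably selected in G418 were plated at 2000/well, grown 16-24 hr, then given compounds in DMSO with the PDE inhibitor […] (300 uM solution added) for 30 min at 37C; cAMP was read by HTRF.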
D2 agonist – human D2 receptor agonism in beta-arrestin assay | P14416 | DiscoveRx PathHunter D2 beta-arrestin, luminescence, 90 min; 100% = 57 uM dopamine signal | activation, % (test concentration not listed) | 360,000 tested, 0.084% active; in the data active = activation above about 40%; inconclusive = about 15% to 40%; inactive = below about 15%; further: compound concentration not given in the record; the text of the record calls up to 30% inactive
Target sequence (P14416 whole entry, looked up): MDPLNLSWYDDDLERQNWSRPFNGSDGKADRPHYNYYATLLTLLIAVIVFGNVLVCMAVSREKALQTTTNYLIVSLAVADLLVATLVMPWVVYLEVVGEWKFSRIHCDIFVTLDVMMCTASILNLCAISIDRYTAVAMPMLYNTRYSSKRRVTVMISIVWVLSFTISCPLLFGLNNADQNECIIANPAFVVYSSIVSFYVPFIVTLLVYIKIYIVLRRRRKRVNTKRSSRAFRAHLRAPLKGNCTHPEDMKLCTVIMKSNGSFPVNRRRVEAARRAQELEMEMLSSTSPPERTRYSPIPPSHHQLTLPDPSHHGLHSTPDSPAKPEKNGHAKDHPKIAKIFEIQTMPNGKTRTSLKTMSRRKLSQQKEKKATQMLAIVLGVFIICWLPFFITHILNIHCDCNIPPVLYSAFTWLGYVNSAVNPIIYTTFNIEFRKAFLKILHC
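Agonist mode: compounds alone added to overnight-plated D2 PathHunter cells for 90 min at 37 C, with 57 uM final dopamine (EC100) defining full response. Beta-arrestin recruitment detected by chemiluminescent reagent, read after 1 h at ambient temperature.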
gsp antagonist – gsp mutant antagonism; 340,000 tested, 0.4% active; Potency, µM (series often up to 76.9 µM), for the others: at the highest dose activity change, negative = inhibition, actives largely listed as inhibitors; gsp-mutant cells, cAMP HTRF, 30 min; control for the full effect not named in the record; active = falling curve of any shape with a large fitted effect; inconclusive = falling curve, mostly with a smaller effect; inactive = flat or rising curve; cell line not stated here;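 further: intracellular cAMP measured with PDE inhibitor Ro 20-1724 present during compound exposure; potency means the concentration at half of the fitted maximal effect; on the % scale 0 is the no-effect control and ±100 the full control effect; nearly all actives have a fitted effect of over 65% in size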
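HTRF cAMP measurement after 30 min RT detection following 30 min, 37C compound treatment alongside […] (added as 300 uM solution) in G418-selected cells seeded at 2000/well and grown 16–24 h.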
Menin-MLL FL inh – inhibitors of human menin-MLL interaction, wild-type MLL peptide | AID 1766 | Fluorescence polarization, fluorescein-MLL peptide displacement from menin | 290,000 tested, under 10 active | FP activity change, % at 61.4 µM; inconclusive = falling polarisation curve, or a change in total fluorescence; inactive = total fluorescence flat and polarisation flat or rising; no compound was filed as active; the % refers to the polarisation; negative = inhibition;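 further: % of control where 0% means no effect; inhibitors lower the polarisation; unlabelled MLL peptide was the positive control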
An asterisk follows results filed as active; ? = inconclusive; · = not tested or not shown; & = joins results of further samples; [ ] = dose if it differs, or a comment.

SMILES | PINK1 modulator | ClpP mod | Sfp PPTase inh | gsp agonist | D2 agonist | gsp antagonist | Menin-MLL FL inh
Cc1nn(Cc2c(F)c(F)c(F)c(F)c2F)c(C)c1NC(=O)c1c(-c2ccccc2)nn(-c2ccccc2)c1C | ? | 0.0% | -1% | -48%[inhibitor] | 2.3 | -7% | 2.2
Cc1ccc(O)c(NC(=O)c2ccc3c(c2)C(=O)N(Cc2ccco2)C3=O)c1 | 1.6% | -1.6% | 7% | 0% | -3.6 | 7% | ·
COC(=O)c1cc(=O)nc2sccn12 | 1.4% | 28µM* | -1% | -18% | 1.2 | 6% | -1.0
Cc1cccc(C)c1NC(=S)N(Cc1ccccc1)Cc1cccnc1 | -0.4% | · | 18% | 6%[15.4 µM] | 3.5 | ? | -5.2
CC1(C(=O)NS(=O)(=O)c2cccc(Cl)c2)CCN1C(=O)COc1ccc(Cl)cc1 (configuration not stated) | 1.0% | 0.3% | · | · | -3.8 | · | ·
Cc1cc2ncn(-c3ncccc3[N+](=O)[O-])c2cc1C | -0.6% | 0.0% | 40µM* | 18%[15.4 µM] | 8.1 | 0% | -1.5
CCN(CC)S(=O)(=O)c1ccc(C)c(C)c1 | -1.9%[38.3 µM] | -2.4% | 15% | 7% | -2.4 | ? | -2.7
CNC[C@H]1OCCCC[C@H](C)Oc2ccc(NC(=O)CCCN(C)C)cc2C(=O)N([C@H](C)CO)C[C@@H]1C | 0.2% | -2.8% | · | ? | -6.2 | · | ·
COCCn1c(=O)c(-c2ccc(F)cc2)nc2cnc(OCc3ccccc3)nc21 | 0.0% | · | -10% | · | · | · | 3.1
COc1ccc(-c2ccc(C(=O)Nc3cccc(NS(C)(=O)=O)c3)c3occc23)c(C)c1 | 18% | 4.4% | · | · | 4.0 | · | ·
COc1cccc(C2=NOC(C(=O)NCc3ccco3)C2)c1 (configuration not stated) | 8.4% | -2.7% | 5% | -30% | -1.8 | 13% | 8.4
COc1ccccc1Nc1nc(NCC(C)C)nc(N)c1[N+](=O)[O-] | -1.5% | · | -11% | -2%[15.4 µM] | -6.8 | 8% | 3.8
CCOC(=O)c1[nH]c2ccc(OC)cc2c1NC(=O)N1CCOCC1 | 0.3% | 25µM* | -3% | -30% | 4.4 | -3% | 1.2
O=C(c1ccccc1)c1cc([N+](=O)[O-])ccc1N1CCCC1 | 11% | -1.8% | -2% | -2% | -1.2 | -1% | ·
O=C(Nc1ccc2c(c1)OCCO2)c1cncc(Br)c1 | -1.0% | 0.1% | 7% | -1% | -3.1 | -25% | 0.9
Cc1nn(C)c(C)c1NC(=O)c1ccc(Br)o1 | -1.5% | · | 8% | 8%[15.4 µM] | -3.9 | 8% | 1.7
C1=C\CCC2(OCCO2)C2(CC/1)OCCO2 | 0.0% | -0.1% | · | 22% | -5.1 | · | ·
COc1cccc(C(=O)NC2CCCN(C3Cc4ccccc4C3)C2)c1OC (configuration not stated) | 1.7% | -1.9% | 9% | ? | -4.5 | ? | -3.4
CCc1cccc(CC)c1NC(=S)Nc1ccccc1 | 0.3% | · | 16% | 21% | -2.9 | 16% | -6.7
CCCCCC(/C=N/Nc1ccc(S(=O)(=O)N2CCOCC2)cc1[N+](=O)[O-])=C\c1ccccc1 | 1.7% | 0.4% | 5% | -8% | -1.5 | -11% | -1.1
Cc1nnc(SCCN2C(=O)c3ccccc3C2=O)nc1C | -0.2% | 1.4% | · | 0% | -3.3 | 5% | ·
O=C(C1CCN(S(=O)(=O)N2CCC3(CC2)OCCO3)CC1)N1CCc2ccccc2C1 | -0.5% | 0.8% | 9% | -63% | -2.5 | ? | -2.0
COc1ccc([N+](=O)[O-])cc1N(CC(=O)Nc1ccccc1C(=O)N1CCCC1)S(C)(=O)=O | -1.4% | · | 14% | 16%[15.4 µM] | 2.3 | · | -4.0
Cc1cc(C)n(Cc2n[nH]c(=S)n2Cc2ccccc2)n1 | 1.3% | -0.7% | -6% | -11% | 4.0 | 8% | 3.3
Cc1ccc(S(=O)(=O)N2CCN(C(=O)CCC(=O)NCc3ccc(F)cc3)CC2)cc1 | 2.4% | -5.8% | -4% | -26% | -1.1 | -14% | 6.9
Remaining list, next part
SMILES | PINK1 modulator | ClpP mod | Sfp PPTase inh | gsp agonist | D2 agonist | gsp antagonist | Menin-MLL FL inh
CCCS(=O)(=O)Nc1cccc(-c2cn3c(n2)SCC3)c1 | -0.2% | -7.5% | 1% | 15% | -7.0 | 5% | -1.3
O=C(CSc1nnc2ccc(-c3ccc(F)cc3)nn12)N1CCOCC1 | 0.4% | -0.1% | · | 20%[15.4 µM] | 2.2 | 0% | ·
O=C(NCCCNC(=O)c1ccccc1)c1ccccc1 | 1.5% | · | · | -1%[15.4 µM] | -3.6 | -6% | ·
Cc1ccccc1S(=O)(=O)Cc1ccc(C(=O)N2CCN(c3cccc(C)c3C)CC2)o1 | -3.0% | -0.8% | 3% | 11% | 9.8 | -8% | 6.2
CCOC(=O)c1c(-c2ccccc2)nnn1-c1nc(OCC)nc(N2CCCCC2)n1 | -1.1% | -0.7% | -26% | -13% | -0.5 | -24% | 6.4
CCOC(=O)C(=O)Nc1ccc(F)cc1 | -2.4% | -1.9% | 8% | 7% | -1.6 | -10% | -1.4
COc1ccc(C)cc1NC(=O)CN1C(=O)CSc2ccc(S(=O)(=O)N3CCCC3)cc21 | -0.6%&-0.4% | 0.3%&-3.2% | 13% | ? | -1.0 | -5% | -4.4
O=C(COc1ccc(F)cc1)NCC1CCCO1 (configuration not stated) | 3.9% | -4.6% | 7% | 2% | 1.7 | 11% | 0.9
CCCNC(=O)CCn1nc(-c2ccc(C)cc2)c2ccccc2c1=O | 2.8%&-0.2% | -0.6%&-5.9% | -1% | -42%[inhibitor] | -0.6 | 7% | 0.7
CN(CC(=O)Nc1ccc(N2CCOCC2)cc1)CC(=O)Nc1ccccc1C#N | -0.5% | -1.8% | -10% | -4% | 1.7 | 2% | 0.8
Cc1ccc(NC(=O)CC2C(=O)NCCN2C(=S)Nc2ccccc2)c(C)c1 (configuration not stated) | 3.2% | 1.1% | 18% | ? | -2.2 | -5% | 5.8
CCOC(=O)c1sc(NC(=O)c2ccoc2C)c(C(N)=O)c1C | 14% | 0.7% | -10% | 3%[15.4 µM] | -2.6 | -12% | ·
COc1cc(/C(C)=N/N2CCN(c3ccccc3OC)CC2)ccc1O | 1.6% | 3.2% | 3% | -9% | -3.1 | 3% | 0.2
COc1ccc2c(c1)[nH]c1c(=O)n(CCCN3CCOCC3)cnc12 | 1.3% | -13% | 7% | 19% | 1.4 | 2% | 1.9
O=C(c1ccccc1)c1ccc(COC(=O)c2cnccn2)cc1 | -0.1% | · | 20% | 27%[15.4 µM] | -6.3 | -7% | 0.3
Cc1ccc(NC(=O)c2cc(N3C(=O)C4CC=CCC4C3=O)ccc2N2CCOCC2)cc1Cl (configuration not stated) | -0.3% | ? | 6% | -65%[inhibitor] | -1.2 | -4% | -3.0
Cc1ccc(C(=O)NNC(=O)c2ccccc2-n2cccc2)cc1 | 0.5% | · | 3% | ? | 3.9 | -1% | -5.2
O=C(N[C@@H](Cc1c[nH]c2ccccc12)C(=O)O)c1ccc(Cl)cc1 | -1.3% | · | 27% | ? | 0.8 | 4% | 3.7
OC[C@@H]1CN(Cc2ccc(-c3ccccc3)cc2)C[C@H](n2cnc3c(N4CCCC4)ncnc32)O1 | 4.0% | 0.0% | · | · | 1.9 | · | ·
O=C(c1cc2ccccc2oc1=O)N1CCCC1 | 5.5% | -10% | 4% | -11% | -0.8 | 13% | -0.1
CCCCOc1ccc(S(=O)(=O)NC(=O)C2(C)CCN2C(=O)Cc2cccs2)cc1 (configuration not stated) | 1.7% | 2.2% | · | · | -0.9 | · | ·
C/C=C\C(=O)Nc1cccc(C2=NOC3(C2)C[C@@H](C(N)=O)N(C(=O)COc2ccc(Cl)cc2)C3)c1 (some centres not stated) | -0.7% | 0.2% | 14% | 19% | 0.2 | 0% | 1.7
CC(=O)Oc1ccc(OC(C)=O)c2c1CC(C)=C(C)C2 | 1.3% | 0.8% | ? | -7% | -5.4 | 12% | -4.1
CCCCCOC(=O)CCN1C(=O)/C(=C2\SC(=S)N(CCC(=O)OCCCCC)C2=O)SC1=S | -0.4% | ? | ? | 5%[15.4 µM] | -0.9 | 9% | 24
COc1cccc2c1OCC(C(=O)Nc1nccs1)=C2 | 0.9% | 2.8% | 2% | 23% | 0.5 | -4% | 0.7
(further entries)
SMILES | PINK1 modulator | ClpP mod | Sfp PPTase inh | gsp agonist | D2 agonist | gsp antagonist | Menin-MLL FL inh
CSc1ccc(CN2CCN(C(=O)CC(C)C)CC2)cc1 | -0.5% | · | -22% | -19% | 4.6 | 4% | -1.3
COc1ccc(-c2nc(NCCCN(C)C)c3ccccc3n2)cc1 | -0.4% | -26% | 1% | ? | -6.5 | 9% | -1.3
COc1ccccc1N1CCN(C(=O)c2ccc3c(=O)n(Cc4ccc5c(c4)OCO5)c(=O)[nH]c3c2)CC1 | 2.7% | -4.0% | 15% | -1% | 0.5 | -10% | 1.0
CN(C)CCCN(C(=O)c1ccc(S(=O)(=O)N2CCOCC2)cc1)c1nc2cc3c(cc2s1)OCO3 | -0.2% | 0.2% | -6% | 16% | -3.1 | -13% | 1.5
Cc1ccc(C)c(NC(=O)c2cc([N+](=O)[O-])cc([N+](=O)[O-])c2)c1 | 2.1% | · | 0% | 0% | ? | -22% | 0.5
O=C(O)c1ccc(S(=O)(=O)Nc2ccc(F)c(Cl)c2)cc1 | -0.8% | ? | 17% | -46%[inhibitor] | -1.3 | -2% | -0.4
CCOC(=O)c1sc2ncc([N+](=O)[O-])cc2c1N | 0.2% | 0.2% | 16% | -15% | -0.5 | -3% | 1.4
CCOCCCNC(=O)CN1C(=O)c2ccccc2Sc2ncccc21 | -1.4% | -0.8% | 10% | -31%[inhibitor] | -3.9 | 13% | -1.7
CC(OC(=O)c1cc2sccc2n1C)C(=O)NCCc1ccccc1 (configuration not stated) | · | -1.8% | -15% | -9% | -3.0 | ? | 0.0
